NPYLR7 agonist: mosquito NPYLR7 agonism; 0.15% of 270,000 active; AID 1259423; HEK293T NPYLR7/Galpha15, GCaMP6s calcium fluorescence; activation, % at 10 µM; in the data active = activation above about 40%;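 note: 0% = vehicle and 100% = reference agonist at the receptor; some compounds past the cut are filed as inactive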
NPYLR7 agonist max-min: also measured in NPYLR7 agonist; calls as there; activation, %; measured here: Max-Min RFU normalised activation; some inactives read as strong as hits;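 span of the calcium signal over five minutes; 0% = vehicle and 100% = native peptide agonist; compound fluorescence can raise it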
* hit, by the source's call; & = joins results of further samples. These rows are one share of the data; count on the stated rates, not on these rows.

What do the screens show for `Cc1ccc(CSc2nncc(=O)[nH]2)cc1`?
NPYLR7 agonist: -1; NPYLR7 agonist max-min: -2

Results for Cc1ccc(C(=O)N2CCC(c3n[nH]c(=O)n3Cc3ccccc3)CC2)cn1 ?
NPYLR7 agonist: 11; NPYLR7 agonist max-min: 7

What do the screens show for `CC1(c2cc(C(=O)N3CCC(Oc4ccccn4)CC3)c3ccccc3n2)CC1`?
NPYLR7 agonist: -6; NPYLR7 agonist max-min: 5

What do the screens show for `O=C1c2nccnc2C(=O)N1c1ccc(F)cc1F`?
NPYLR7 agonist: 3; NPYLR7 agonist max-min: 4

What do the screens show for `O=C(O)C1CC2(CCNCC2)CN1Cc1cc(F)ccc1F` (stereo not drawn)?
NPYLR7 agonist: 5; NPYLR7 agonist max-min: 5

What do the screens show for `NC(=O)N/N=C\c1sc(=O)n(Cc2ccccc2)c1Cl`?
NPYLR7 agonist: -5; NPYLR7 agonist max-min: -11

How did COc1ccc(CCNC(=O)c2sc3nc(-c4cccc([N+](=O)[O-])c4)cn3c2C)cc1OC do in these assays?
NPYLR7 agonist: 6; NPYLR7 agonist max-min: 1

How did Cc1cc(=O)oc(C)c1C(=O)OCC(=O)Nc1ccc(N(C)C)cc1 do in these assays?
NPYLR7 agonist: 6; NPYLR7 agonist max-min: 4

What do the screens show for `CN(Cc1ccc(N(C)C)cc1)C(=O)c1cccc(C(N)=O)c1`?
NPYLR7 agonist: -1; NPYLR7 agonist max-min: 0

How did COCc1nc(N2CCNC(C)C2)c2cnn(C)c2n1 (stereo not drawn) do in these assays?
NPYLR7 agonist: 7; NPYLR7 agonist max-min: -4

How did CCn1c(O)c(C=C2C=Nc3ccccc32)sc1=S do in these assays?
NPYLR7 agonist: -3; NPYLR7 agonist max-min: -8

What do the screens show for `O=C(Cn1nc(-c2cccs2)c2sc(N3CCCC3)nc2c1=O)NCc1ccccc1`?
NPYLR7 agonist: -2; NPYLR7 agonist max-min: -8

Results for CC(NC(=O)CCn1ccc(=O)[nH]c1=O)C1=CCCCC1 (stereo not drawn) ?
NPYLR7 agonist: 17; NPYLR7 agonist max-min: 11

Results for CC(=O)Nc1cccc(-n2c(C)nn(CC(O)c3ccccc3)c2=S)c1 (stereo not drawn) ?
NPYLR7 agonist: -1; NPYLR7 agonist max-min: -4

Results for COCCN(CC(=O)Nc1cc(-c2ccccc2)nn1-c1ccc(F)cc1)C(=O)Nc1ccc(F)cc1F ?
NPYLR7 agonist: 18; NPYLR7 agonist max-min: 23

How did CC(C)NC(=O)NNC(=O)c1cccn(Cc2cccc(Cl)c2)c1=O do in these assays?
NPYLR7 agonist: 6; NPYLR7 agonist max-min: 3

How did Cc1ccccc1-n1c(SCC(=O)NCC2CCCO2)nnc1-c1ccccc1F (stereo not drawn) do in these assays?
NPYLR7 agonist: -3; NPYLR7 agonist max-min: 16

How did CN(Cc1ccccc1)c1nc2nonc2nc1N1CCCC(CN2CCCC2=O)C1 (stereo not drawn) do in these assays?
NPYLR7 agonist: 16; NPYLR7 agonist max-min: 4

Results for COc1ccc2ccccc2c1-c1nc2c([nH]1)c(C)nn2C ?
NPYLR7 agonist: 2; NPYLR7 agonist max-min: -2

What do the screens show for `CC12CCC(C(=O)N3CCCC3)(CC1=O)C2(C)C` (stereo not drawn)?
NPYLR7 agonist: 0; NPYLR7 agonist max-min: -2

Gathered by group: those above with an aryl thioether with sulfur outside any ring (two)
What do the screens show for `Cc1ccc(CSc2nncc(=O)[nH]2)cc1`?
NPYLR7 agonist: -1; NPYLR7 agonist max-min: -2

How did Cc1ccccc1-n1c(SCC(=O)NCC2CCCO2)nnc1-c1ccccc1F (stereo not drawn) do in these assays?
NPYLR7 agonist: -3; NPYLR7 agonist max-min: 16

The list goes on.
What do the screens show for `OCC1(Cc2ccccc2)CCCN(Cc2cc3ccccc3[nH]2)C1` (stereo not drawn)?
NPYLR7 agonist: 11; NPYLR7 agonist max-min: 9

What do the screens show for `CCOC(=O)CNC(=O)N(CCCOC)CC(=O)N(CCc1c[nH]c2ccccc12)Cc1ccc(F)cc1`?
NPYLR7 agonist: 11; NPYLR7 agonist max-min: 18

What do the screens show for `Cc1ccnc(NS(=O)(=O)c2ccc(NC(=O)CCC(=O)O)cc2)n1`?
NPYLR7 agonist: 0; NPYLR7 agonist max-min: 0

How did CN(C)CCCN(C(=O)c1ccc(Br)s1)c1nc2ccccc2s1 do in these assays?
NPYLR7 agonist: -3; NPYLR7 agonist max-min: -8

How did O=C(CCOc1ccccc1)Nc1ccnn1C1CCN(C(=O)COc2ccccc2)CC1 do in these assays?
NPYLR7 agonist: -9; NPYLR7 agonist max-min: -9

Results for COc1ccc2oc(-c3ccc(NC(=O)c4cccc(Br)c4)cc3)nc2c1 ?
NPYLR7 agonist: -3; NPYLR7 agonist max-min: -8

Results for O=C1c2cccc3cccc(c23)C(=O)N1CCCN(C(=O)c1cc(Cl)cc(Cl)c1)c1ccccc1 ?
NPYLR7 agonist: 0; NPYLR7 agonist max-min: -1

Results for NC(=O)c1c(NC(=O)CSc2nnc(NC3CC3)s2)sc2c1CCCC2 ?
NPYLR7 agonist: 3; NPYLR7 agonist max-min: 10

What do the screens show for `CCCCCOc1ccc(C(=O)NCCCN2CCCC2=O)cc1OCCCCC`?
NPYLR7 agonist: 1; NPYLR7 agonist max-min: 3

How did COc1ccc(C=C2SC(N3CCCCC3)=NC2=O)cc1F do in these assays?
NPYLR7 agonist: 4; NPYLR7 agonist max-min: 9

What do the screens show for `O=C(c1ccccc1N1CCOCC1)N1CCCC(Nc2ccc(F)cc2)C1` (stereo not drawn)?
NPYLR7 agonist: -3; NPYLR7 agonist max-min: -5

Results for Cn1ncc2c(NCc3ccccc3)nc(N3CCN(CCO)CC3)nc21 ?
NPYLR7 agonist: 4; NPYLR7 agonist max-min: 0

What do the screens show for `Cc1ccc(-n2nnc(C(=O)OCc3ccccc3Cl)c2C)cc1F`?
NPYLR7 agonist: 4; NPYLR7 agonist max-min: 4

What do the screens show for `CCS(=O)(=O)c1ccc(C(=O)Nc2ccc(-n3cc[nH]c3=O)cc2)cc1`?
NPYLR7 agonist: 16; NPYLR7 agonist max-min: 17

What do the screens show for `COc1ccccc1-n1c(CNC(=O)COc2ccccc2)nnc1SCC(=O)Nc1nccs1`?
NPYLR7 agonist: 12; NPYLR7 agonist max-min: 14

Results for O=C(c1ccnnc1)N1CCn2nc(C(=O)N3CCCC3)cc2C1 ?
NPYLR7 agonist: -7; NPYLR7 agonist max-min: -7

What do the screens show for `Cc1cc(C(=O)N(CCn2cccn2)c2nc3c(F)cccc3s2)no1`?
NPYLR7 agonist: -15; NPYLR7 agonist max-min: -23

How did CC(Cc1ccc(O)c(O)c1)(NN)C(=O)O (stereo not drawn) do in these assays?
NPYLR7 agonist: -2&-3; NPYLR7 agonist max-min: -6&-9

Results for CC(Cc1n[nH]c(=S)o1)c1ccccc1 (stereo not drawn) ?
NPYLR7 agonist: 2; NPYLR7 agonist max-min: 1

What do the screens show for `Cc1cc(C)c(C#N)c(SCC(=O)Nc2ccc(Cl)cc2)n1`?
NPYLR7 agonist: -3; NPYLR7 agonist max-min: -5

How did CC(N)=C(C#N)C(=O)CSc1nc(N)cc(=O)[nH]1 do in these assays?
NPYLR7 agonist: 4; NPYLR7 agonist max-min: 2

How did CCN(C(C)COC)S(=O)(=O)c1ccc(N2CCCC2=O)cc1C (stereo not drawn) do in these assays?
NPYLR7 agonist: 0; NPYLR7 agonist max-min: -12

Results for Cc1ccc(F)c(S(=O)(=O)N2CCC(O)(C(=O)O)CC2)c1 ?
NPYLR7 agonist: 5; NPYLR7 agonist max-min: 2

What do the screens show for `COc1ccc([C@H]2[C@@H](C(=O)NCCc3c[nH]c4ccc(O)cc34)c3ccccc3C(=O)N2Cc2ccccc2)cc1`?
NPYLR7 agonist: 0; NPYLR7 agonist max-min: -6

How did Cc1ccc(NC(=O)N(CCN2CCCC2)CC(=O)N(Cc2ccc(F)cc2)Cc2sccc2C)cc1 do in these assays?
NPYLR7 agonist: -12; NPYLR7 agonist max-min: -14

How did Cc1cc(=O)[nH]c(-n2nc(C)c(CCC(=O)NCc3cc(-c4ccccc4)on3)c2C)n1 do in these assays?
NPYLR7 agonist: 9; NPYLR7 agonist max-min: -1

What do the screens show for `Cc1ccc(NC(=O)CSc2nc(=O)n3ccccc3n2)c(C)c1`?
NPYLR7 agonist: 2; NPYLR7 agonist max-min: 0

Results for CCN(CC)CCCNC(=O)c1cccc(S(=O)(=O)N2CCOCC2)c1 ?
NPYLR7 agonist: -5; NPYLR7 agonist max-min: -8

Results for CCN(C1=NC2CS(=O)(=O)CC2S1)c1ccc(C)c(C)c1 (stereo not drawn) ?
NPYLR7 agonist: 5; NPYLR7 agonist max-min: 3

Results for CCCOC(=O)C1=C(C)NC2=C(C(=O)CCC2)C1c1cc(OC)ccc1OC (stereo not drawn) ?
NPYLR7 agonist: 4; NPYLR7 agonist max-min: 13

How did COC(=O)c1cccc(N=C2N=C(N)c3ccccc32)c1 do in these assays?
NPYLR7 agonist: 6; NPYLR7 agonist max-min: 3

How did CCCCS(=O)(=O)N(CCCN1CCOCC1)CC(=O)N(Cc1ccc(F)cc1)Cc1ccco1 do in these assays?
NPYLR7 agonist: 4; NPYLR7 agonist max-min: 17

Results for Cc1ccc(N=Cc2nc(-c3ccccc3)oc2O)c(C)c1 ?
NPYLR7 agonist: -5; NPYLR7 agonist max-min: -10

How did Cc1ccc(C2CC(=O)C(C=NCCN3CCN(C(=O)C(C)C)CC3)=C(O)C2)cc1 (stereo not drawn) do in these assays?
NPYLR7 agonist: 7; NPYLR7 agonist max-min: 14

What do the screens show for `CCOc1ccccc1C(=O)Nc1ccc(N2CCN(C(=O)NCCc3ccc(OC)cc3)CC2)nc1`?
NPYLR7 agonist: 6; NPYLR7 agonist max-min: 6

Results for Cc1ccc(N2CC(C(=O)Nc3cc(-c4cccs4)nn3-c3nc(C)cc(=O)[nH]3)CC2=O)cc1 (stereo not drawn) ?
NPYLR7 agonist: 0; NPYLR7 agonist max-min: -1

Results for N#Cc1cccc(C(=O)N2CCCSC2=Nc2cccc(C(F)(F)F)c2)c1 ?
NPYLR7 agonist: 4; NPYLR7 agonist max-min: 3

What do the screens show for `Cc1ccccc1-c1nc(OC(C)C)nn1-c1cccc(NC(=O)C2CCC2)c1`?
NPYLR7 agonist: 23; NPYLR7 agonist max-min: 27

What do the screens show for `CC(C)(C)c1ccc(C2SCC(=O)N2c2cccc(F)c2)cc1` (stereo not drawn)?
NPYLR7 agonist: -2; NPYLR7 agonist max-min: -6

What do the screens show for `O=C(CN1CCN(C(=O)c2cccs2)CC1)Nc1cc(Cl)ccc1F`?
NPYLR7 agonist: 1; NPYLR7 agonist max-min: -1

Entries above that have a COOH group (four):
What do the screens show for `O=C(O)C1CC2(CCNCC2)CN1Cc1cc(F)ccc1F` (stereo not drawn)?
NPYLR7 agonist: 5; NPYLR7 agonist max-min: 5

What do the screens show for `Cc1ccnc(NS(=O)(=O)c2ccc(NC(=O)CCC(=O)O)cc2)n1`?
NPYLR7 agonist: 0; NPYLR7 agonist max-min: 0

How did CC(Cc1ccc(O)c(O)c1)(NN)C(=O)O (stereo not drawn) do in these assays?
NPYLR7 agonist: -2&-3; NPYLR7 agonist max-min: -6&-9

Results for Cc1ccc(F)c(S(=O)(=O)N2CCC(O)(C(=O)O)CC2)c1 ?
NPYLR7 agonist: 5; NPYLR7 agonist max-min: 2

Among those listed so far, these contain bromine.
How did CN(C)CCCN(C(=O)c1ccc(Br)s1)c1nc2ccccc2s1 do in these assays?
NPYLR7 agonist: -3; NPYLR7 agonist max-min: -8

Results for COc1ccc2oc(-c3ccc(NC(=O)c4cccc(Br)c4)cc3)nc2c1 ?
NPYLR7 agonist: -3; NPYLR7 agonist max-min: -8

The results go on.
How did O=[N+]([O-])c1ccc(-c2nc(-c3cccnc3)no2)cc1 do in these assays?
NPYLR7 agonist: -7; NPYLR7 agonist max-min: -14

What do the screens show for `CCSc1nnc2c(n1)OC(c1cc3c(cc1[N+](=O)[O-])OCO3)Nc1ccccc1-2` (stereo not drawn)?
NPYLR7 agonist: 5; NPYLR7 agonist max-min: 1

Results for COc1ccc(-c2cnnc(NC(C)Cc3cccc(C)n3)n2)cc1F (stereo not drawn) ?
NPYLR7 agonist: -7; NPYLR7 agonist max-min: -9

Results for CCCCCCCCc1ccc(-c2ccc(C(=O)Nc3ccc(O)c4c3C(=O)c3ccccc3C4=O)cc2)cc1 ?
NPYLR7 agonist: -2; NPYLR7 agonist max-min: 0

Results for COCCCNCc1csc(COc2ccccc2C(C)C)n1 ?
NPYLR7 agonist: 24; NPYLR7 agonist max-min: 29

What do the screens show for `COc1cc(-n2cnnc2)c2ncccc2c1`?
NPYLR7 agonist: 19; NPYLR7 agonist max-min: 10

Results for COc1ccc(-c2nc3scc(CCN)n3n2)cc1 ?
NPYLR7 agonist: 4; NPYLR7 agonist max-min: 2

How did Cc1c(C(=O)NCc2ccccc2)cc(-c2ccc(Cl)cc2)n1-c1ccc2c(c1)OCO2 do in these assays?
NPYLR7 agonist: -8; NPYLR7 agonist max-min: -13

Results for COc1ccc(CN2CCc3nc(SCC(=O)Nc4ccc(C)c(C)c4)[nH]c(=O)c3C2)cc1 ?
NPYLR7 agonist: -5; NPYLR7 agonist max-min: -7

What do the screens show for `COc1ccccc1OCC1CN(C(=O)C(C)Oc2ccccc2Cl)CCO1` (stereo not drawn)?
NPYLR7 agonist: 17; NPYLR7 agonist max-min: 9

How did Cc1nc(CN(C)C2CCN(c3cccc(C)c3C)CC2)no1 do in these assays?
NPYLR7 agonist: 9; NPYLR7 agonist max-min: 12

How did CC(C)(O)C#Cc1cccc(C(=O)NCCc2ccccn2)c1 do in these assays?
NPYLR7 agonist: 1; NPYLR7 agonist max-min: 1

What do the screens show for `Cc1ccccc1C1CCN(CCNC2CCN(S(C)(=O)=O)CC2)C1` (stereo not drawn)?
NPYLR7 agonist: 8; NPYLR7 agonist max-min: -4
